PK Bst: alters activity of Bacillus stearothermophilus pyruvate kinase; 1.2% of 51,000 active; partly purified Bacillus stearothermophilus pyruvate kinase, luminescence ATP production; ribose 5-phosphate activator present at AC10; Potency, µM; in the data active means potency below about 11 µM; inconclusive means mostly about 12 µM to 25 µM; inactive means weaker than that;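 the screen sought inhibitors and activators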;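 also: potency is read from the fitted curve at half-maximal effect; scaled between full activation by ribose 5 phosphate and full inhibition by luteolin; about four in five hits inhibit and the cells do not say which; series up to 57 µM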
TsaE inh: displaces an ADP probe from E. coli YjeE (TsaE); P0AF67; purified YjeE, fluorescence polarisation of a bound ADP probe; Potency, µM; 0.05% of 71,000 active; active = well fitted falling curve; inconclusive = weaker or top-dose-only fall, or a rising curve; inactive = flat or poorly fitted curve;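 also: top concentration of the series not given in the record; excess ADP was the control for the full effect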
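Purified YjeE (10 uM) with BODIPY Texas Red-labeled ADP probe (2 uM); compounds pin-transferred, 15 min at room temperature. Binding inhibition read as decreased fluorescence polarization; ADP titration as control.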
Active calls of the source: *; i = inactive; . = no result given. Not all compounds are listed; count on the stated rates, not on these rows.

PK Bst	TsaE inh	Structure
.	i	CN(C)c1ncc2nc(CCc3ccccc3)c(=O)n(C3CC3)c2n1
.	i	COC(=O)c1ccc(C(NC(=O)OCc2ccccc2)/C(I)=C/[C@@H](C)C(=O)NCc2ccc(OC)c(O)c2)cc1 (stereo not given in full)
>57	i	COC(=O)C(O)(NC(=O)NC(C)=O)C(F)(F)F (stereo not given)
>57	i	CCC(Oc1ccccc1)C(=O)N1CCC(C(N)=O)CC1 (stereo not given)
.	i	COc1ccc(C)cc1NC(=O)c1nnn(Cc2cccc(F)c2)c1N
>57	i	CC(C)CCN1C(=O)c2ccc(C(=O)NCC3CCCO3)cc2C1=O (stereo not given)
.	i	Cc1ccc(CSC2=Nc3ccccc3C3=NC(CC(=O)NCc4ccco4)C(=O)N23)cc1 (stereo not given)
>57	i	CC(C(=O)Nc1ccccc1-c1ccccc1)N1CCN(C(=O)c2ccco2)CC1 (stereo not given)
.	i	Cc1cc(O)c2c(c1)C(=O)c1cc(O)cc(O)c1C2=O
>57	i	CCc1ccccc1N(CC(=O)Nc1cccc(N(C)S(C)(=O)=O)c1)S(C)(=O)=O
.	i	COc1cc(OC)cc(-c2cc3nc4c(c(N5CCN(c6cnccn6)CC5)n3n2)CCCC4)c1
.	i	CCc1nnc(N2CCN(c3ncnc4c3oc3ccccc34)CC2)s1
>57	i	COCC(=O)Nc1cccc(Br)c1
>26	.	COCCCNC(=O)c1c(N)n(/N=C/c2cccs2)c2nc3ccccc3nc12
.	i	Cc1cc(Oc2ccc(-c3ccccc3)cc2)nc(N2CCOCC2)n1
.	i	COc1ncc2ncc(=O)n(Cc3cccs3)c2n1
>57	i	Cc1cc(C)nc(SCC(=O)Nc2ccc(Br)cn2)n1
.	i	O=C(Cn1c(=O)oc2cc(S(=O)(=O)N3CCCC3)ccc21)NC1CCCc2ccccc21 (stereo not given)
>57	i	COc1ccc(C2CC(=O)C3=C(C2)Nc2ncnn2C3c2ccccc2C)c(OC)c1 (stereo not given)
>57	i	NC1=NC(c2ccc(F)cc2)n2c(nc3ccccc32)N1 (stereo not given)

Brought forward from above: 7 compounds, followed by the next part.
PK Bst	TsaE inh	Structure
>26	.	COCCCNC(=O)c1c(N)n(/N=C/c2cccs2)c2nc3ccccc3nc12
.	i	Cc1cc(Oc2ccc(-c3ccccc3)cc2)nc(N2CCOCC2)n1
.	i	COc1ncc2ncc(=O)n(Cc3cccs3)c2n1
>57	i	Cc1cc(C)nc(SCC(=O)Nc2ccc(Br)cn2)n1
.	i	O=C(Cn1c(=O)oc2cc(S(=O)(=O)N3CCCC3)ccc21)NC1CCCc2ccccc21 (stereo not given)
>57	i	COc1ccc(C2CC(=O)C3=C(C2)Nc2ncnn2C3c2ccccc2C)c(OC)c1 (stereo not given)
>57	i	NC1=NC(c2ccc(F)cc2)n2c(nc3ccccc32)N1 (stereo not given)
.	i	COCC(=O)N1CCC2(CC1)CCN(c1ccc(-c3ccccc3)cc1)CC2
>57	i	CC(=O)N=C1SC2CS(=O)(=O)CC2N1c1ccccc1Cl (stereo not given)
.	i	O=C(NCCN1CCc2ccccc2C1)Nc1ccc(F)cc1
>57	i	CCS(=O)(=O)N1CCC(C(=O)NCc2ccc(F)cc2Cl)CC1
>57	i	O=C(C1CC(c2ccccc2O)=NO1)N1CCCC1 (stereo not given)
.	i	COC(=O)[C@@]1(Cc2ccc(OC)cc2)[C@H]2c3cc(C(=O)N4CCCC4)n(CCF)c3C[C@H]2CN1C(=O)c1ccccc1
.	i	CCC[C@H](Sc1nc(N)nc2nc[nH]c12)C(=O)O
>57	i	CCOCCCn1c(=S)[nH]c2cc(C(=O)NCCOC)ccc2c1=O
.	i	CN1CCN(c2ncnc3ccc(-c4ccoc4)cc23)CC1
>11	.	CCCc1nnc(NC(=O)c2c(O)c3c([nH]c2=O)CCCC3)s1
>26	.	Cc1ccc(C2CC(c3cccs3)n3nc(N)nc3N2)cc1 (stereo not given)
>57	i	Oc1ccccc1-c1cc(C(F)(F)C(F)F)nc(-c2ccccc2)n1
>57	i	C/C=C/C=[N+](\[O-])C(C)/C(=N/O)c1ccc(F)cc1 (stereo not given)
>57	i	Cc1ccc(N2CCN(C(=O)N3CCCC3)CC2)cc1Cl
>57	i	Cc1cccc2cc(CN(CC3CCCO3)C(=O)c3cccnc3)c3nnnn3c12 (stereo not given)
.	i	CSc1nc(NC2CCCC2)c([N+](=O)[O-])c(NC2CCCC2)n1
>57	i	Cc1c(NC(=O)Nc2ccc3c(c2)OCO3)c(=O)n(-c2ccccc2)n1C
.	i	COc1cccc(Cn2c(=O)c(-c3ccccc3)nc3cnc(N4CCNCC4)nc32)c1
.	i	CCCc1nc(SCC(=O)Nc2ccccc2OC)c2c(=O)n(C)c(=O)n(C)c2n1
>57	i	O=C(CSc1nnc(-c2ccco2)n1Cc1ccccc1)NC(=O)NCc1ccco1

Full records, quoted from the list. Values in the order: PK Bst | TsaE inh
CN1CCN(c2ncnc3ccc(-c4ccoc4)cc23)CC1 as listed: . | i
COc1cccc(Cn2c(=O)c(-c3ccccc3)nc3cnc(N4CCNCC4)nc32)c1 as listed: . | i
O=C(CSc1nnc(-c2ccco2)n1Cc1ccccc1)NC(=O)NCc1ccco1 as listed: >57 | i
CCS(=O)(=O)N1CCC(C(=O)NCc2ccc(F)cc2Cl)CC1 as listed: >57 | i
CCC[C@H](Sc1nc(N)nc2nc[nH]c12)C(=O)O as listed: . | i

(further entries)
PK Bst	TsaE inh	Structure
.	i	COC(=O)C1C2C=CC3(CN(c4ccc(Cl)c(F)c4)C(=O)C13)O2 (stereo not given)
>57	i	O=C(CSc1nnnn1-c1ccc2c(c1)OCCO2)OC1CCCCC1
.	i	Cc1cc(OCC(=O)N2CCCC2)ccc1Cl
>57	i	OCCN(Cc1ccccc1)Cc1ccccc1F
>57	i	O=C(O)c1cn(-c2ccccc2)nc1-c1ccncc1
>57	i	Cc1nc2ccc(F)cc2cc1C(=O)NC(C)C
>57	i	CC(C)n1c(N2CCN(C(=O)NCc3ccccc3)CC2)nc2ccccc21
>57	i	Cc1ccc2nsnc2c1S(=O)(=O)NCc1ccc2c(c1)OCO2
.	i	COc1ccc(OC(C)C(=O)Nc2cccc(OC)c2)cc1 (stereo not given)
>57	i	CCOC(=O)N1CCN(C(=O)c2ccccc2-c2ccccc2)CC1
>57	i	Cc1nc2[nH]onc2c2nccc(=O)c12
i	.	CC(=NC1CCCC1)c1c(C)[nH]n(-c2nc3ccccc3s2)c1=O
>57	i	CCOC(=O)CSc1nnc(-c2ccccc2OC)o1
>57	i	Cc1nn(Cc2ccc(F)cc2)c(C)c1NC(=O)c1cnn2cccnc12
>57	i	CCOc1nc(-c2ccc(OC)cc2)ccc1-c1noc(-c2ccncc2)n1
>57	i	O=C(CSCc1ccccc1Cl)N1CCN(c2ccccn2)CC1
.	i	CCOC(=O)C(C)Oc1cccc2c(=O)n(CC(=O)Nc3ccc4c(c3)OCCO4)ccc12 (stereo not given)
>57	i	Cc1cc2nc(C3CCN(CC4COc5ccccc5O4)CC3)[nH]c2cc1C (stereo not given)
.	i	CCC(CC)C(=O)Nc1cc(C)c2c(=O)oc3ccccc3c2n1
.	i	Cc1ccc(S(=O)(=O)NCCOC(=O)Nc2sc(=S)n(C)c2C)cc1

(listing goes on)
PK Bst	TsaE inh	Structure
.	i	Cc1ccc(C(CC(=O)c2ccco2)SCCO)cc1 (stereo not given)
i	i	CNC(=O)COC(=O)c1cc(F)c(F)cc1Cl
.	i	CCN(Cc1ccccc1)c1ccccc1
>57	i	COc1ccc(-c2nn(C)c(=O)c3ccccc23)cc1CNS(C)(=O)=O
>57	i	CN(C)/C=N/c1sccc1C(N)=O
.	i	NCCC[C@@H](CC(=O)N[C@@H]1CCNC[C@H]1C(=O)N[C@H](CC(=O)N[C@@H](CCC(=O)O)CC(=O)O)Cc1ccccc1)NC(=O)C[C@H](Cc1c[nH]c2ccccc12)NC(=O)[C@@H]1CCCC[C@H]1N
>57	i	O=C(NCc1cccs1)C1CCN(S(=O)(=O)c2cccc3nsnc23)CC1
>57	i	COCCn1c(SCC(=O)c2ccc3c(c2)OCCO3)nnc1-c1ccoc1C
>57	i	Cn1c(=O)c2c(ncn2CC(=O)Nc2ccc(Cl)cc2Cl)n(C)c1=O
>57	i	O=C(Nc1ccc(-n2cnnn2)cc1)C1CCCN1C(=O)NC1CCCCC1 (stereo not given)
>57	i	CCOC(=O)c1nc(C)[nH]c1C(=O)OCC
.	i	O=C(Cc1cccs1)NCCn1ccc2ccccc21
>57	i	CCCCCNC(=O)Cc1ccc(OC)cc1
.	i	COc1ccc(C(=O)Nc2ccc(S(=O)(=O)NC(C)=O)cc2)cc1
.	i	O=C(c1cc(C(F)(F)F)cc(C(F)(F)F)c1)N1CCC2(CC1)CCN(c1ccccn1)CC2
.	i	COCCOC(=O)C1=C(C)NC2=C(C(=O)CC(C)(C)C2)C1c1ccc2c(c1)OCO2 (stereo not given)
>57	i	CCOC(=O)CSc1nc2c(c(=O)n(C)c(=O)n2C)n1CCCc1ccccc1
>57	i	COc1nc2c(C)cccc2cc1-c1noc(-c2ccncc2)n1
.	i	CC1(C)OC(=O)C(=C2CCCN2)C(=O)O1
>57	i	COc1cc(CN2CCN(c3cccc(Cl)c3)CC2)cc(OC)c1OC

More records:
PK Bst	TsaE inh	Structure
>57	i	Cc1cccc(OCC(O)Cn2c(NCCCOC(C)C)nc3c2c(=O)[nH]c(=O)n3C)c1 (stereo not given)
>57	i	Cc1nc(SCc2cccc(F)c2)[nH]c(=O)c1C#N
>57	i	O=c1c2ccccc2nnn1CSc1ccc2c(c1)OCCO2
.	i	O=C(COc1ccccc1Cl)Nc1ccc(Cl)cn1
.	i	O=C=Nc1ccc(Cl)c(Cl)c1
>57	i	Cc1ccccc1OCC(O)Cn1c(=N)n(CCN2CCOCC2)c2ccccc21 (stereo not given)
>57	i	NC(=O)C1(N2CCCCC2)CCN(C(=O)CSc2nc3ccccc3o2)CC1
.	i	CCOC(=O)N1CCC(Nc2nc3ccccc3n3nnnc23)CC1
>57	i	COC(=O)C1C(=O)C2=C(CC1C)NC(C)=C(C(=O)OC1CCCCC1)C2c1ccc(N(C)C)cc1 (stereo not given)
>57	i	COc1ccccc1C(=O)Nc1ccccc1SC
.	i	CC1(C)CC(=O)c2c(Cc3ccccc3)n[nH]c2C1
>26	.	COc1ccc(/C(O)=C2/C(=O)C(=O)N(CCN3CCOCC3)C2c2ccccn2)cc1 (stereo not given)
>57	i	COc1ccc(CNC(=O)Cc2nn(C)c(=O)c3ccccc23)cc1
>57	i	COc1cc(OC)cc(C(=O)N2c3ccc(F)cc3CCC2C)c1 (stereo not given)
>57	i	O=c1cc(CSc2ccccn2)nc(N2CCN(c3ccccc3)CC2)[nH]1
.	i	N#Cc1cccc(-c2nc(Nc3ccccc3)c3ccccc3n2)c1
.	i	COc1ccccc1CN1CCCC2(CCN(S(=O)(=O)c3ccccc3)CC2)C1
>57	i	COCCNC(=O)C1c2ccccc2C(=O)N(CCOC)C1c1ccc(F)cc1 (stereo not given)
.	i	COc1cc(Br)c(CC(=O)O)cc1OC
>57	i	COc1ccc(CN2C(=O)c3cccnc3C2Nc2ccc(OC)c(Cl)c2)cc1 (stereo not given)

The list goes on:
PK Bst	TsaE inh	Structure
.	i	COC(=O)C1=C(C)N(C)C(=O)NC1c1ccc(C)cc1 (stereo not given)
i	i	Cc1ccc(C)c(NC(=O)CSc2nnc(-c3ccco3)o2)c1
>57	i	O=C(CCSc1nnc2scc(-c3ccccc3)n12)NCc1ccc2c(c1)OCO2
.	i	COc1cc(CNC(=O)CCCCCCC(C)C)ccc1O
>57	i	COC(=O)[C@H](Cc1ccccc1)NC(=O)N1CCN(Cc2ccccc2)CC1
>26	.	COc1ccc(C2C(C(C)=O)=C(O)C(=O)N2c2nccs2)cc1OC (stereo not given)
>57	i	CCC(=O)Nc1ccc(C(=O)Nc2ccc3c(c2)OCO3)cc1
>57	i	Cc1oc(-c2ccc(Cl)cc2)nc1CN1CCC(C(=O)NCc2ccco2)CC1
>57	i	Cc1ccc(C)n1NC(=O)c1cccs1
.	i	CCOCCn1c(COc2ccccc2)nc2ccccc21
.	i	CCCOc1ccc(N2C(=O)CC(N3CCOCC3)C2=O)cc1 (stereo not given)
.	i	O=NN(CCCl)C(=O)NCCCl
>57	i	Cc1ccc(-n2c(Cn3cnc4ccccc43)nnc2SCC(=O)O)cc1
>57	i	O=C(CSc1nc2ccccc2[nH]1)NC(=O)NCc1ccco1
>57	i	Cn1c2c(c(=O)n(C)c1=O)C(c1ccc(O)cc1)Nc1ccccc1O2 (stereo not given)
.	i	COc1cc(C)c(C)cc1S(=O)(=O)N1CCN(Cc2ccccc2)CC1
>57	i	CCOC(=O)C1=C(C)NC(SCC(N)=O)=C(C#N)C1c1ccncc1 (stereo not given)
>57	i	COC(=O)c1ccc2c(=O)n(CC3CCCO3)c(=S)[nH]c2c1 (stereo not given)
.	i	COc1cc(C(c2sc3nc(C)nn3c2O)N2CCN(c3ccccc3)CC2)cc(OC)c1OC (stereo not given)
>57	i	CC(=O)Nc1c2c(nn1-c1ccc(C)cc1C)CSC2

More entries
PK Bst	TsaE inh	Structure
>57	i	O=C(O)c1cccc(NC(=O)c2cccc(NC(=O)C3CCCO3)c2)c1 (stereo not given)
>57	i	CCOC(=O)CNC(=O)C(Cc1ccccc1)NS(=O)(=O)c1ccc2c(c1)CCC(=O)N2 (stereo not given)
>57	i	Cc1sc2nc3c(C(=O)N4CCN(c5ncccn5)CC4)cccn3c(=O)c2c1C
>57	i	CCCCCc1ccc(CC(=O)O)cc1

Source: PubChem
